Ba CapD inh: Bacillus anthracis CapD inhibitors, primary screen, biochemical, fluorescence intensity. CapD gamma-glutamyltranspeptidase (Bacillus anthracis Ames Ancestor). purified CapD enzyme, fluorescence intensity read-out; active compounds read low; some hits fall short of the stated cut. z-score (no concentration beside the values). 140,000 compounds, 0.23% hits. AID 492967, 2010;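 active = z-score under -4 in either of two replicates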;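 note: stock transfer was 100 nL into about 40 µL; score is relative to mean and spread of the plate; one replicate is shown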
AID504770: growth inhibition of E. coli YBA685, primary screen, V. cholerae RctB inhibitors; AID 504770, 2011; z-score (concentration not given with the values); 130,000 compounds, 0.27% hits; E. coli YBA685 rctB-dependent plasmid, OD600 growth, 3 h; active compounds read low;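 active = z-score under -2 on both plates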;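 note: wells of about 30 µL received 100 nL stock; score is relative to mean and SD of the test wells; the first replicate is given; strong numbers were not always called active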
Starred values were filed as active, the others as inactive; . = not tested or not shown; & = joins results of further samples. Not all compounds are listed; the hit share may differ from the screen's.

SMILES	Ba CapD inh	AID504770
CC(C)(C)OC(=O)N(CCOC(=O)N1CCCC1C(=O)OCc1ccccc1)Cc1cc2ccccc2c2ccccc12 (stereo not drawn)	0.57	.
CC1CCCN(C(=O)CSc2nnc(COc3ccc(Cl)cc3)n2C)C1 (stereo not drawn)	.	-0.25
COC(=O)c1cc(-c2ccc(Cl)cc2)n(-c2cc(Cl)cc(Cl)c2)n1	0.15	.
CCOc1nc(C)ccc1-c1noc(-c2cccc(C)c2)n1	0.89	0.65
Cc1cc2oc(=O)cc(CN(C)C3CCCCC3)c2cc1C(C)C	.	0.3
Cc1c(-n2c(SCC(=O)O)nnc2-c2ccccc2Br)c(=O)n(-c2ccccc2)n1C	.	-0.2
CCOC(=O)c1c(-c2ccccc2)oc2c1cc(OC(=O)c1ccc([N+](=O)[O-])cc1)c1ccccc12	-0.34	.
Cn1nc(-c2ccccc2)c(COCc2c(Cl)cccc2Cl)c1Cl	-0.46	.
CCCc1ccc(S(=O)(=O)N2CCN(c3ccc(OC)cc3OC)CC2)cc1	0.34	.
NCC(O)CNCCc1ccccc1 (stereo not drawn)	.	1.4
NC(=O)Nc1ccc2c(c1)OCO2	.	-2
COc1cc(OC)nc(CSCCNC(=O)C2CCCCC2C(=O)N2CCN(CC(=O)N3CCOCC3)CC2)n1 (stereo not drawn)	-0.75	.
COC(=O)c1ccc2c(c1)C(=O)/C(=C/c1ccc(C)o1)O2	-0.35	0.1
Cc1noc(C)c1S(=O)(=O)N(Cc1ccccc1)C(C)C	-1.4	0.05
O=C(NCc1ccccc1Br)OCC1(c2ccc(Cl)cc2)CC1	-0.3	.

Single records (already shown).
Listed for Cc1noc(C)c1S(=O)(=O)N(Cc1ccccc1)C(C)C → Ba CapD inh: -1.4; AID504770: 0.05
Listed for NC(=O)Nc1ccc2c(c1)OCO2 → Ba CapD inh: .; AID504770: -2

Back to the main list, repeating the 7 entries before the break.
SMILES	Ba CapD inh	AID504770
CCCc1ccc(S(=O)(=O)N2CCN(c3ccc(OC)cc3OC)CC2)cc1	0.34	.
NCC(O)CNCCc1ccccc1 (stereo not drawn)	.	1.4
NC(=O)Nc1ccc2c(c1)OCO2	.	-2
COc1cc(OC)nc(CSCCNC(=O)C2CCCCC2C(=O)N2CCN(CC(=O)N3CCOCC3)CC2)n1 (stereo not drawn)	-0.75	.
COC(=O)c1ccc2c(c1)C(=O)/C(=C/c1ccc(C)o1)O2	-0.35	0.1
Cc1noc(C)c1S(=O)(=O)N(Cc1ccccc1)C(C)C	-1.4	0.05
O=C(NCc1ccccc1Br)OCC1(c2ccc(Cl)cc2)CC1	-0.3	.
CCOC(=O)/C(=C\c1cccc2ccccc12)C1=Nn2c(C)nnc2SC1	.	-0.75
COc1ccc(NC(=O)C2(N3C(=O)CC3c3ccc(OC(C)C)cc3)CCCCC2)cc1 (stereo not drawn)	-0.015	1.3
O=C(NCCCN1CCCC1=O)c1nnc(-c2ccc3c(c2)OCO3)o1	0.18	1
CCCSc1nnc(-c2ccc(F)cc2)o1	.	0.05
CSc1n[nH]c(-c2ccc(Cl)cc2)n1	0.3	0
CCOC(=O)N1CCN(C(=O)CSc2ccc(-c3cccs3)nn2)CC1	-0.17	-0.4
COCCNc1nc(SCC(=O)Nc2cccc(C(F)(F)F)c2)nc2ccccc12	0.03	.
CC(=O)c1cccc(N2C(=O)C3C4C=CC(CO)(O4)C3C2=O)c1 (stereo not drawn)	-0.22	.
O=C(NCCc1ccc(Cl)cc1)C(c1ccccc1)c1ccccc1	0.45	2.4
CNc1nc(SCc2ccc(C#N)cc2)nc2ccccc12	.	0.2
CC(C)NC(=O)C1c2ccccc2C(=O)N(C)C1c1cccs1 (stereo not drawn)	-0.18	-0.2
Clc1nc(-c2ccccc2)nc2sc3c(c12)CCCC3	4	0.85
CCc1ccc(CN(C)CC(=O)N(C)c2c(N)n(Cc3ccccc3)c(=O)[nH]c2=O)cc1	.	-0.1
Fc1ccc(NC(=S)Nc2ccc3cn[nH]c3c2)cc1	-0.56	.
COc1ccc(C=NCC2OCCc3ccccc32)cc1OC (stereo not drawn)	-1.3	0.1
O=C(c1ccc(C(=O)N2CCc3ccccc3C2)cc1)N1CCc2ccccc2C1	-0.25	-0.2
COc1cc(OC)nc(C2CCN(C(=O)c3ccccc3NC(=O)C(c3ccccc3)c3ccccc3)CC2)n1	-0.025	.
COc1ccc(C(O)(C(=O)NN(c2ccccc2)c2ccccc2)c2ccc(OC)cc2)cc1	-0.05	.
CC(C(=O)Nc1ccc(S(=O)(=O)N2CCCCC2)cc1)N1CCCCCC1 (stereo not drawn)	.	-0.25
Cc1cc(OC(=O)c2ccccc2)n(CCC#N)n1	0.075	-0.6
Fc1cccc(Cl)c1CSc1nc2nccc(-c3ccccn3)n2n1	5.5	.
CCCc1nc2ccccc2c2c1C(=O)N(NC(=O)c1ccccc1C)C2=O	-0.93	.
COc1ccc(C2C=C(c3ccc(Cl)cc3)Nc3nc4ccccc4n32)cc1 (stereo not drawn)	-0.7	.
Cc1ccc(N2CCN(Cc3sccc3C)CC2)cc1	0.53	0.35
CCCNC(=O)C1=C(C)C(=O)OC12CCN(CC)CC2	-0.42	0.65
Cc1ccc(Nc2nc3nonc3nc2Nc2c(C)n(C)n(-c3ccccc3)c2=O)cc1C	-0.15	.
O=C1/C(=C/c2ccccn2)CCc2ccccc21	0.14	.
COc1ccc(-n2nc(C(=O)NCc3ccco3)c3ccccc3c2=O)c(OC)c1	0.62	.
NC(=O)Cn1c(SCCOc2ccc(Cl)cc2)nc2ccccc21	-0.015	.
CN1CCN(Cc2nnnn2CC2CCCO2)CC1 (stereo not drawn)	.	-0.15
CCOc1ccc(NC(=O)NS(=O)(=O)c2ccc(C)cc2)cc1	-0.065	0.35
O=C(CSC1=NCCS1)NC(=O)c1ccccc1	-1.4	-0.2
CC(C)C1(C)N=C(c2ncccc2C(=O)O)NC1=O (stereo not drawn)	-0.89&-0.19	-0.75&-0.2
COc1cc(-c2[nH]nc3c2C(c2ccccc2Cl)C(C#N)=C(N)O3)cc(OC)c1OC (stereo not drawn)	0.015	.
COc1cc(OC)nc(CSc2ncc(C(=O)N3CCc4ccccc4C3)n2C)n1	-0.39	.
O=C(c1ccc(-c2ccc(F)cc2)o1)N1CCC(c2ccccc2)CC1	0.86	1.4
COc1cc(OC)c(N(C)C(=O)c2ccc3c(=O)n4c(nc3c2)CCCCC4)cc1Cl	53	-0.2
CS(=O)(=O)CS(=O)(=O)C1=C(N2CCOCC2)C2CCN1CC2	0.45	-2.2
CN=c1scc(-c2cc(OC)ccc2OC)n1/N=C/c1ccco1	.	-0.35
C/C(=N\OC(=O)c1ccc(S(=O)(=O)N2CCCC(C)C2)cc1)c1ccc(C)o1 (stereo not drawn)	.	-0.05
COc1ccc(NC(=O)CSc2nc3[nH]ncc3c(=O)n2-c2ccc(Br)cc2)c(OC)c1	0.39	.
Cc1nc2ccc(NC(=O)CS(=O)(=O)c3ccc(F)cc3)cc2s1	.	1.6
OCCCNCc1ccccc1Cl	.	-0.6
CCCCc1ccc(C(=O)On2c(-c3ccc(Br)cc3)nc3ccccc3c2=O)cc1	0.2	.
Cc1ccc2nc(NC(=O)c3ccc(F)cc3)sc2c1	-0.28	-0.5
CC(=S)N1CCN(C(C)=S)CC1	0.065	-1.2
CN(C)c1oc(COc2ccc(Cl)cc2Cl)nc1S(=O)(=O)c1ccccc1	-0.36	.
CC(C)(C)C(=O)Nc1ncnc2sc3c(c12)CCCC3	-0.32	0.9
Cn1c(C(=O)O)c(CC(=O)N2CCCC2)c2ccccc21	0.77	-0.2
COc1cccc(N/C(SCc2ccccc2C)=C(/C#N)C(=O)NCc2ccccc2)c1	0.22	.
Cc1ccc(SCC(=O)N2CCOCC2)cc1	.	0.05
O=C(Nc1ccccc1I)c1c(O)c2ccccc2[nH]c1=O	0.77	.
CN(C)C(=S)Sc1c(O)c2ccccc2n(C)c1=O	-0.49	0
CCC1(CC)Cc2ccccc2C(N2CCOCC2)=N1	-0.21	.
CCOC(=O)C1CCCN(C(=S)NC2CCCC2)C1 (stereo not drawn)	-0.33	1.5
COc1cccc(C2CC(c3ccccc3)=NN2S(=O)(=O)c2ccc(C)cc2)c1OC (stereo not drawn)	-0.33	.
COC(=O)c1ccc(CSc2nnc(-c3ccc(F)cc3)c3ccccc23)o1	.	-0.4
COc1ccc(S(=O)(=O)Nc2ccccc2SCc2ccc(S(C)(=O)=O)cc2)cc1	0.14	.
CCOC(=O)c1ccc(N=Cc2ccccc2O)cc1	-1.2	-1.1
CCOC(=O)c1cnc(SC)nc1NC(=O)Nc1cccc(OC)c1	-0.92	-0.2

The list goes on:
SMILES	Ba CapD inh	AID504770
C/C(=N\OCCN1CCCCC1)C1COc2ccccc2O1 (stereo not drawn)	.	-1.1
N#Cc1cnn2c1[nH]c(=O)c1ccccc12	78	.
COc1cccc(C(=O)N2c3ccccc3Sc3ccc(C(F)(F)F)cc32)c1	-1.3	.
CCc1ccc(C2(O)CC(C(F)(F)F)=NN2C(=O)c2ccccn2)cc1 (stereo not drawn)	-0.15	.
Cc1c(C(=O)NCc2cccnc2)oc2ccc3c(c12)C(=O)CC1(CCCC1)O3	1.5	-0.7
N#CCCN(C(=O)c1ccc2c(=O)n3c(nc2c1)CCCC3)c1ccccc1	0.35	-0.25
CCn1cc(NC(=O)NCC2CCCCC2)c(=O)c2ccc(C)nc21	2.2	0.2
CN(C(=O)C1(c2cccs2)CCOCC1)c1ccccc1	.	1.4
Cc1ccccc1S(=O)(=O)Cc1ccc(C(=O)N2CCN(c3ccccc3)CC2)o1	0.31	-0.3
Cn1c(-c2ccccc2)c(C(=O)Cn2cnc3sccc3c2=O)c2ccccc21	.	0.55
COc1ccc(N2CCN(C(=O)CNC(=O)Cn3c(C)cc4ccccc4c3=O)CC2)cc1	-0.9	.
CC1=NNC(=O)C1C(c1cccc(F)c1)C(C#N)C#N (stereo not drawn)	0.38	0.85
COC(=O)c1c(NC(=O)/C=C/c2ccc(OC)cc2)sc(C)c1C	0.04	-0.55
CCN(CCO)C(=O)CCN1C(=O)/C(=C\c2ccco2)SC1=S	.	1.1
CN(C(=O)COc1ccc(-c2nnco2)cc1)C1CCCc2ccccc21 (stereo not drawn)	.	-0.85
Cc1nc2ccncc2cc1C(=O)N1CCOCC1	-0.59	.
COC(=O)CS(=O)C(C)C(=O)N1CCc2cccc(S(=O)(=O)N(C)C)c21 (stereo not drawn)	0.22	.
Cc1cccc(NC(=O)C(Cc2c[nH]c3ccccc23)NC(=O)OCc2ccccc2)c1C (stereo not drawn)	-1	.
COc1ccc(-c2c(C(F)(F)F)oc3c(CN4CCOCC4)c(O)ccc3c2=O)cc1OC	-0.03	.
O=C(NCCCN1CCOCC1)C1CC(=O)N(c2ccccc2)C1 (stereo not drawn)	.	0
COC(=O)c1ccccc1Sc1c(CO)c(-c2ccccc2)nn1C	0.03	.
CCOC(=O)C1=C(N)OC2=C(C(=O)CC(c3ccccc3)C2)C1c1ccc2c(c1)OCO2 (stereo not drawn)	-0.57	.
CC(NS(=O)(=O)c1ccc(Br)cc1)C(=O)Nc1nc2ccccc2[nH]1 (stereo not drawn)	.	-0.3
CNc1ccccc1C(=O)NC1CCCCC1	69	-1.1
O=C(O)CCCC(=O)Nc1ccc(F)cc1F	0.92	-0.35
O=C(Cc1ccsc1)NCCc1ccc2c(c1)OCCO2	.	-1.1
O=C(NCc1ccccc1)c1ccc2nc(-c3cccs3)c(-c3cccs3)nc2c1	0.35	-0.2
CCOc1ccccc1N1CCN(S(=O)(=O)c2cccs2)CC1	-0.75	-0.7
OC1CCN(CC(O)COc2ccc(Cl)c(Cl)c2)CC1 (stereo not drawn)	-0.7	-0.95
CC(C)c1c(C#N)c(N)nc(SCC(=O)c2cc3ccccc3oc2=O)c1C#N	.	0.8

The closing two entries of the section above open the next one.
SMILES	Ba CapD inh	AID504770
OC1CCN(CC(O)COc2ccc(Cl)c(Cl)c2)CC1 (stereo not drawn)	-0.7	-0.95
CC(C)c1c(C#N)c(N)nc(SCC(=O)c2cc3ccccc3oc2=O)c1C#N	.	0.8
O=C1CCSc2ccc(F)cc21	0.46	.
COc1ccc(/C=C2\N=C(c3ccc(Cl)cc3)N(c3ccc(C)cc3Br)C2=O)cc1OC	0.58	.
C=CCn1c(Br)nc2c1c(=O)n(C)c(=O)n2C	.	-0.25
FC(F)(F)c1cccc(N2CCN(Cc3cccc(Cl)n3)CC2)c1	-0.55	.
Nn1c(SCC(=O)NC2CCCc3ccccc32)nnc1-c1cccs1 (stereo not drawn)	.	1.3
O/N=C/c1ccc2c(c1)OCO2	0.56	.
CCOC(=O)N1CCN(S(=O)(=O)c2ccc(C(=O)Nc3ccc4c(c3)C(=O)NC4=O)cc2)CC1	1.4	-0.15
O=C(Nc1nnc(C2CC2)s1)c1cccc(S(=O)(=O)N2CC(c3ccccc3)CC2=O)c1 (stereo not drawn)	0.77	-0.15
O=C(COc1ccccc1F)OCC(=O)N1CCCCC1	-0.43	-1.1
CCCCCC1C/C(=N/OC(C)=O)C=C(C)C1C(=O)OC (stereo not drawn)	.	-0.4
CCCOc1ccc(Cn2cnc3ccccc32)cc1	0.015	-1.2
CCOC(=O)c1c(-c2ccccc2)oc2c1cc(OC(=O)c1cc([N+](=O)[O-])cc([N+](=O)[O-])c1)c1ccccc12	2.5	.
O=C(NNC(=O)c1csc(-c2ccccc2)n1)OCCc1ccc(Cl)cc1	0.3	.
COC(=O)c1csc2c(C(F)(F)F)cc(N3CCN(C(=O)c4cc(Cl)cc(Cl)c4)CC3)nc12	1.4	.
